# Screening data (PubChem)
# MgrA DNA FP – S. aureus MgrA-DNA binding modulation | AID 602314 | fluorescence polarization | hit rate 0.13% among 84,000 | inhibition, %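 (about 10 µg/mL by stock and volumes)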;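 active = above 50% in either of two replicates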;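 also: 0% = protein plus DNA without compound and 100% = DNA alone without protein; higher means less MgrA bound to DNA so lower polarization; one replicate is shown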
# S aureus helic – blocks Staphylococcus aureus DNA helicase; purified S. aureus helicase, fluorescence unwinding assay; about half of the hits fall short of the stated cut; hit rate 0.05% among 120,000; AID 485395; inhibition, %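 (tested at about 80 µM)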;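 active = both duplicates at 50% or more, or one of them with a favoured structure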;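 also: 0% = mean of negative control wells and 100% = mean of positive control wells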
# Numbers without * were called inactive; / = not tested or not shown. This is a subset; count on the stated rates, not on these rows.
S aureus helic	MgrA DNA FP	SMILES
-3.0	/	N#Cc1cc(C#N)c(SCc2cc(=O)n3cc(Br)ccc3n2)nc1N
-4.0	-0.2	CCC1NC(=S)NC(C)=C1C(=O)c1ccccc1 (stereo unspecified)
19.0	/	CC(C)C(C)NC(=O)Nc1ccc(Cl)cc1 (stereo unspecified)
8.0	2.3	C/C(=N\NC(=O)c1cccnc1)C1COc2ccccc2O1 (stereo unspecified)
-15.0	0.0	O=C1C2CC=CCC2C(=O)N1c1ccc(Cl)cc1 (stereo unspecified)
-12.0	/	CCOC(=O)c1c(NC(=O)COC(=O)c2ccc(Br)o2)sc(C)c1CC
7.0	0.9	Cc1ccc(S(=O)(=O)N(CC(=O)N2CCCCCC2)c2ccc(C)c(Cl)c2)cc1
12.0	-2.1	CCC1CCCN1Cn1cnc2c([nH]c3ccc(C)cc32)c1=O (stereo unspecified)
-19.0	/	CC1(C)CC(=O)C2=C(C1)Nc1[nH]c(=O)[nH]c(=O)c1C2c1ccc(Br)cc1 (stereo unspecified)
4.0	/	O=S(=O)(NCC(c1ccco1)N1CCN(c2ccc(F)cc2)CC1)c1cc(F)ccc1F (stereo unspecified)

S aureus helic	MgrA DNA FP	SMILES
-5.0	3.0	COc1ccc(CCCN=C(N)N)cc1Cl
15.0	2.2	Cc1cccc(NC(=O)CN2C(=O)CC(C)S(=O)(=O)c3ccccc32)c1 (stereo unspecified)
9.0	/	c1ccc(Cn2cnc3ccccc32)cc1
9.0	/	COc1ccccc1C(=O)Nc1ccc2c(c1)nc(CCNC(=O)c1ccco1)n2C
0.0	/	CCCCSc1nnc(CNC(=O)c2ccccc2)n1-c1ccccc1
10.0	0.7	CCCCOc1ccc(CSCCN=C(N)N)cc1
-1.0	7.7	COc1ccccc1Cn1cnc2ccccc21
1.0	/	COc1ccc(S(=O)(=O)Cc2ccc(C(=O)O)o2)cc1
/	-1.5	Cc1nn(C)c(C)c1CNC(=O)c1ccc(N2CCOCC2)nc1
-10.0	/	Nn1c(Cc2ccccc2F)nnc1SCC(=O)NCc1ccc2c(c1)OCO2

S aureus helic	MgrA DNA FP	SMILES
16.0	4.8	CCN(C(=O)CSc1nc2nc(C)c(Cc3cc(C)ccc3C)c(C)n2n1)c1cccc(C)c1
/	-0.4	CC(=O)C1=C(C)OC(N)=C(C#N)C1c1cc([N+](=O)[O-])ccc1Cl (stereo unspecified)
10.0	/	CC(C)(C)c1cc(Cl)c(O)c(NC(=O)c2cncc(Br)c2)c1
/	0.1	Cc1c(C(=O)NC2CCN(Cc3ccccc3)CC2)cnn1-c1ccc(F)cc1
-14.0	/	COc1ccc(C(=O)NCCn2ccc3ccccc32)cc1
/	-0.6	O=C(NCc1ccc2c(c1)CCO2)C1=Cc2ccccc2OC1
8.0	1.0	O=C1C2ON(c3ccccc3)C(c3ccc(F)cc3)C2C(=O)N1c1ccccc1 (stereo unspecified)
13.0	-0.2	COC(=O)Cc1[nH]n(-c2nc3ccccc3s2)c(=O)c1C(C)=NC1CC1
/	1.3	O=C1c2ccccc2C(=O)C1c1ccccc1Br
-1.0	/	Cc1ccc(C(=O)N(Cc2ccc3c(c2)OCO3)C2CCCC2)o1

S aureus helic	MgrA DNA FP	SMILES
10.0	5.9	O=C1c2cccc3c(Cl)ccc(c23)C(=O)N1c1ccccn1
/	-2.8	CCOC(=O)c1cc(-c2ccc(/C=C3\Sc4ccccc4C3=O)o2)ccc1Cl
/	-1.3	CC(C)Cc1ccc(-c2cc(N)c(C(N)=O)s2)cc1
14.0	0.2	Cc1cccc(N(C)C(=O)c2ccc3c(=O)n4c(nc3c2)CCCCC4)c1
23.0	/	COC(=O)c1c(C)nn(-c2ccccn2)c1-c1cc(C)on1
-15.0	/	Cc1nc2cc(C(=O)OCC(=O)NC3CCS(=O)(=O)C3)ccc2n1-c1ccccc1 (stereo unspecified)
14.0	-2.3	CC1CCc2c(nc3ncnn3c2NCCC2CCCN2C)C1 (stereo unspecified)
/	-1.5	C#Cc1cccc(N=C(N)N=C(N)N)c1
-12.0	0.8	Cc1ccc(Cl)cc1N1CCN(C(=O)c2onc(C)c2Cl)CC1
-2.0	-0.8	Cc1c(OC(=O)c2ccco2)ccc2c3c(c(=O)oc12)CCC3

S aureus helic	MgrA DNA FP	SMILES
14.0	4.2	CCOC1=NC(C(F)(F)F)(C(F)(F)F)N=C(N2CCOCC2)O1
/	-1.4	COC(=O)c1ccc(S(=O)(=O)N(C2CCCCC2)C2CCCCC2)n1C
-8.0	/	COc1ccc(C(C)=NNC(=O)c2cc(Br)ccc2O)c(OC)c1
-20.0	/	Cc1noc(C)c1CSc1nc2c(c(-c3ccccc3)c1C#N)C(=O)CC(C)(C)C2
6.0	/	COc1ccc(Cl)cc1NC(=O)C1CSC(c2ccncc2)=N1 (stereo unspecified)
11.0	-0.2	Cc1c(C(=O)Nc2ccccc2N2CCN(C)CC2)sc2nc3n(c(=O)c12)CCCCC3
6.0	-3.6	O=C(NCc1ccccc1)c1ccc(CN(c2ccccc2)S(=O)(=O)c2ccccc2)cc1
/	-1.6	COc1cc(C2OC(=O)c3ccccc3S2)cc(OC)c1OC (stereo unspecified)
/	4.2	O=C(O)C=Cc1ccc(O)c(O)c1
-1.0	/	COc1ccc(C)c(CN(C)C)c1

S aureus helic	MgrA DNA FP	SMILES
3.0	/	O=C1C2=C(c3ccccc31)[N+](=O)[C@@H]1CCCC[C@@H]1N2[O-]
7.0	-6.8	CC(C)CN1CC(C(=O)O)CC1=O (stereo unspecified)
/	0.1	COc1cc(-c2cc(C(F)(F)F)n3ncc(C(=O)NC4CCCCC4)c3n2)cc(OC)c1OC
5.0	-1.6	Cc1ccc(NC(=O)CCc2ccc(C)o2)c(Br)c1
/	-0.4	Brc1ccc2[nH]c3c(Br)cc(Br)cc3c2c1
0.0	/	Cc1ccc(NC(=O)CCNS(=O)(=O)c2ccc3c(c2)CC(C)N3C(=O)C2CC2)cc1C (stereo unspecified)
-17.0	-0.8	c1cncc(-c2nc(-c3ccc4ccccc4c3)cs2)c1
1.0	1.8	Cc1ccccc1-n1c(SCC(=O)N(C(C)C)C(C)C)nnc1-c1cccnc1
4.0	-0.3	C/C=C(\C)C(=O)OC1c2c(ccc3ccc(=O)oc23)OC(C)(C)C1OC(C)=O (stereo unspecified)
/	-1.9	O=S(=O)(NCC1COc2ccccc2O1)c1cccs1 (stereo unspecified)

S aureus helic	MgrA DNA FP	SMILES
0.0	1.9	CCC(CC)c1nnc(NC(=O)c2c(OC)cccc2OC)s1
19.0	0.5	CC(NC(=O)c1ccco1)C(=O)O (stereo unspecified)
13.0	-1.9	CN(Cc1ccccc1)C(=O)COC(=O)c1ccc(Cl)cc1N
26.0	24.1	COc1ccc(-c2cc(=O)[nH]c(=S)[nH]2)cc1
2.0	/	CCOC(=O)C(C(=O)N1CCN(C)CC1)C1CCCCC1 (stereo unspecified)
-26.0	/	O=C1c2ccccc2C(=O)C1(c1ccccc1)N1CCN(CCO)CC1
7.0	5.0	CCc1ccc(NC(=O)c2cccc3c2SCCC3=O)cc1
9.0	/	Cc1nc(/C(=N/O)C(N)=O)cs1
-2.0	0.8	COCCn1c(=O)[nH]c2cc(C(=O)OC)ccc2c1=O
7.0	-0.3	Cn1c(C(=O)N2COCC2(C)C)cc2c(=O)n3ccccc3nc21

# Laid out differently: two of the compounds above
# Values in the order – S aureus helic | MgrA DNA FP
> Cc1nc(/C(=N/O)C(N)=O)cs1
    9.0 | /
> COCCn1c(=O)[nH]c2cc(C(=O)OC)ccc2c1=O
    -2.0 | 0.8

# Remaining list, next part.
S aureus helic	MgrA DNA FP	SMILES
-3.0	/	COC(=O)c1ccc(OCC2c3cc(OC)c(OC)cc3CCN2C(=O)c2ccc(Br)o2)cc1 (stereo unspecified)
/	2.4	CCOC(=O)c1noc(C)c1-c1csc(COc2cc(Cl)cc(Cl)c2)n1
13.0	/	O=C(O)C1CC2CCC(C1)C21SCCS1 (stereo unspecified)
-5.0	/	NS(=O)(=O)c1ccc(NC(=O)NC2CC(=O)N(c3ccc(Cl)cc3)C2)cc1 (stereo unspecified)
12.0	-0.2	O=C1CCCc2nc(N3CCCCC3)sc21
-21.0	/	CCC(=N\Nc1nc2ccccc2[nH]1)/C(CC)=N/Nc1nc2ccccc2[nH]1
/	3.1	CCOC(=O)c1cc(C#N)c(SC)nc1C
1.0	/	COc1ccc(CC(=O)Nc2nnc(C3CCCCC3)s2)cc1OC
/	-0.7	Cc1sc2nc(-c3ccco3)oc(=O)c2c1C
6.0	-3.4	CCc1cc2c(=O)n(Cc3ccco3)c(SC)nc2s1

S aureus helic	MgrA DNA FP	SMILES
0.0	/	Cc1cccc(NC(=S)N2CCCCC2C(N)=O)c1 (stereo unspecified)
7.0	2.7	CCCc1nnc(NC(=O)C(CC)Sc2nc(N)cc(=O)[nH]2)s1 (stereo unspecified)
7.0	-0.2	CCC(=O)Nc1ccc(C(=O)O)cc1NC(=O)CC
-4.0	/	CC1(C)C2CCC1(CS(=O)(=O)N1CCC(C(=O)O)CC1)C(=O)C2 (stereo unspecified)
9.0	/	O=C(OC1CCOC1=O)c1cn(-c2ccccc2)nc1-c1ccccc1 (stereo unspecified)
7.0	-0.2	Brc1ccc(/C=N/n2cnnc2SCc2ccccc2)cc1
-2.0	/	CCCCCCCc1c(COC)[nH]c(=S)[nH]c1=O
4.0	-1.2	CN(C1CCCCC1)S(=O)(=O)c1ccc(-n2cccn2)cc1
9.0	/	CN(CC(=O)N1CCCc2ccccc21)S(=O)(=O)c1ccc2c(c1)OCCO2
21.0	/	Cn1nc(C(F)(F)F)c(-c2ccccc2)c1NC(=O)COCC(=O)O

S aureus helic	MgrA DNA FP	SMILES
12.0	0.8	CCC(C)c1ccc(O)c(NC(=O)c2cccnc2)c1 (stereo unspecified)
/	-2.3	CCN(CC)c1ccc2cc(-c3nnc(-c4ccc([N+](=O)[O-])cc4)o3)c(=O)oc2c1
-1.0	/	CCOC(=O)c1c(NC(=O)C(C)OC(=O)c2ccc(-n3cnnn3)cc2)sc2c1CCCC2 (stereo unspecified)
/	-1.5	CC(C)(C)OC(=O)C(C)(C)Sc1nc(-c2ccccc2)c(-c2ccccc2)o1
27.0	-2.2	O=C(OC1CCCCC1)c1c(F)c(F)c(F)c(F)c1F
-2.0	0.4	CCOC(=O)C1CCCN(CC(O)COc2ccc3ccccc3c2)C1 (stereo unspecified)
/	-0.6	O=c1c(Cc2ccc(Br)cc2)csc2ccccc12
/	-1.7	Cc1onc(-c2ccccc2Cl)c1C(=O)NNC(=O)c1c(-c2ccccc2Cl)noc1C
-20.0	/	CSc1nc(-c2ccco2)nn1C(=O)c1ccc(Cl)cc1
/	0.5	Cc1cc(=O)n2[nH]c(-c3ccc(C(C)(C)C)cc3)cc2n1

S aureus helic	MgrA DNA FP	SMILES
-6.0	1.5	Cc1cc(C(F)(F)F)nc(SCC(=O)Nc2c(C)n(C)n(-c3ccccc3)c2=O)n1
/	-1.4	COc1ccc(CNC(CO)c2ccccc2)c(OC)c1OC (stereo unspecified)
-16.0	/	Cc1cc(C)c(S(=O)(=O)N2CCN(CCO)CC2)c(C)c1
10.0	/	COc1ccccc1NC(=O)N(Cc1ccccc1)c1ccccn1
27.0	/	O=c1c2c(N3CCOCC3)cc(N3CCOCC3)nc2n(-c2ccccc2)c(=O)n1-c1ccccc1
-41.0	/	O=C(O)/C=C/c1nc(-c2ccccc2)n2ccccc12
/	-1.1	O=C(Nc1ccc(NC(=S)NCCc2ccccc2)cc1)c1ccccc1O
19.0	/	C=CCNC(=S)NN1CCN(C)CC1
-18.0	/	Cc1ccc(SCc2cn3ccsc3n2)cc1
0.0	-0.8	NC1CCN(c2ncccn2)CC1

S aureus helic	MgrA DNA FP	SMILES
-29.0	/	Cc1ccc(-c2cc3c4c(C)n(C5CCCCC5)c(C)c4c(C)nn3c2)o1
0.0	/	O=c1[nH]cc(NC(=S)N2CCOCC2)c(=O)[nH]1
13.0	/	CCCS(=O)(=O)NCc1ccc2[nH]c(C)cc2c1
7.0	0.3	Cc1ccc2c(c1)c1c(n2C)C(C(N)=O)CCC1 (stereo unspecified)
10.0	/	CCOC(=O)c1ccc(NC(=O)CSc2nccn2-c2ccc(OC)cc2)cc1
5.0	4.1	NC(=O)COC(=O)/C=C/c1ccc(I)o1
-1.0	-2.8	CNc1cc(C(=O)O)ccn1
26.0	-2.3	CN1CCN(C(c2ccncc2)c2ccc3cccnc3c2O)CC1 (stereo unspecified)
-16.0	-1.4	Cc1cc(C)c(C#N)c(SCc2ccccc2)n1
5.0	/	CCc1ccccc1N1CC(C(=O)OCCN2C(=O)c3ccccc3C2=O)CC1=O (stereo unspecified)
2.0	/	C=CCn1c(SCC(=O)N2CCCCC2C)nc2ccccc2c1=O (stereo unspecified)

# Entries from the list above that contain fluorine:
S aureus helic	MgrA DNA FP	SMILES
4.0	/	O=S(=O)(NCC(c1ccco1)N1CCN(c2ccc(F)cc2)CC1)c1cc(F)ccc1F (stereo unspecified)
-10.0	/	Nn1c(Cc2ccccc2F)nnc1SCC(=O)NCc1ccc2c(c1)OCO2
/	0.1	Cc1c(C(=O)NC2CCN(Cc3ccccc3)CC2)cnn1-c1ccc(F)cc1
8.0	1.0	O=C1C2ON(c3ccccc3)C(c3ccc(F)cc3)C2C(=O)N1c1ccccc1 (stereo unspecified)
14.0	4.2	CCOC1=NC(C(F)(F)F)(C(F)(F)F)N=C(N2CCOCC2)O1
/	0.1	COc1cc(-c2cc(C(F)(F)F)n3ncc(C(=O)NC4CCCCC4)c3n2)cc(OC)c1OC
21.0	/	Cn1nc(C(F)(F)F)c(-c2ccccc2)c1NC(=O)COCC(=O)O
27.0	-2.2	O=C(OC1CCCCC1)c1c(F)c(F)c(F)c(F)c1F
-6.0	1.5	Cc1cc(C(F)(F)F)nc(SCC(=O)Nc2c(C)n(C)n(-c3ccccc3)c2=O)n1

# Grouped by structure, those above with a nitro group on carbon.
S aureus helic	MgrA DNA FP	SMILES
/	-0.4	CC(=O)C1=C(C)OC(N)=C(C#N)C1c1cc([N+](=O)[O-])ccc1Cl (stereo unspecified)
/	-2.3	CCN(CC)c1ccc2cc(-c3nnc(-c4ccc([N+](=O)[O-])cc4)o3)c(=O)oc2c1
